gsp antagonist = gsp mutant antagonism; 340,000 compounds, 0.4% hits; Potency, µM (doses to about 76.9 µM), for inactives: top-dose activity change, negative = inhibition, hits mostly inhibitors; gsp-mutant cells, cAMP HTRF, 30 min; control for the full effect not named in the record; active = falling curve of any shape with a large fitted effect; inconclusive = falling curve, mostly with a smaller effect; inactive = flat or rising curve; cell line not stated here;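 also: intracellular cAMP measured with PDE inhibitor Ro 20-1724 present during compound exposure; potency is read from the fitted curve at half-maximal effect; % is scaled to controls: 0 for no effect and ±100 for the full control effect; nearly all actives have a fitted effect of over 65% in size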
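Cells, 2000/well, grown 16–24 h in DMEM 10% FBS with 0.5 mg/ml G418, then compounds plus […] (300 uM addition stock), 30 min at 37C. cAMP read by HTRF (cAMP-d2 and anti-cAMP antibody-K in lysis buffer) after 30 min RT.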
D2 agonist = human D2 receptor agonism in beta-arrestin assay; activation, % (test concentration not listed); AID 624465; 360,000 compounds, 0.084% hits; DiscoveRx PathHunter D2 beta-arrestin, luminescence, 90 min; 100% = 57 uM dopamine signal; in the data active = activation above about 40%; inconclusive = about 15% to 40%; inactive = below about 15%; also: compound concentration not given in the record; the text of the record calls up to 30% inactive
Target sequence (P14416 whole entry, looked up): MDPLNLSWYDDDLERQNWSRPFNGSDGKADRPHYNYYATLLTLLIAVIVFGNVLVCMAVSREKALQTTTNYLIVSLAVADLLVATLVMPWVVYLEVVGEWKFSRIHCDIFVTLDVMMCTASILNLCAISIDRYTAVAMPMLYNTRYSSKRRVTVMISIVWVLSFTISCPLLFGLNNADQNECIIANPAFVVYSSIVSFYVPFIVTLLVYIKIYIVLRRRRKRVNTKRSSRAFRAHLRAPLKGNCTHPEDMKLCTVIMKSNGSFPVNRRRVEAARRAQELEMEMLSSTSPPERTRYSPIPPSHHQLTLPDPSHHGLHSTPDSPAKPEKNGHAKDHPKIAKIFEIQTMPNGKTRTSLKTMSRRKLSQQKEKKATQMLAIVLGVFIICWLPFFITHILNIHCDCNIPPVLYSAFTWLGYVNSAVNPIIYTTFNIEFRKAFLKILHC
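DiscoveRx PathHunter D2 beta-arrestin cells (2,100/well) attached overnight, then compound-stimulated 90 min at 37 C in HBSS/10 mM HEPES/0.1% Tween-20 buffer; beta-galactosidase complementation read by luminescence after 1 h at ambient temperature. Dopamine 57 uM final (EC100) as control.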
Menin MLL FP FL = inhibitors of human menin-MLL interaction, wild-type MLL peptide; Fluorescence polarization, fluorescein-MLL peptide displacement from menin; FP activity change, % at 61.4 µM; 290,000 tested, under 10 active; AID 1766; inconclusive = falling polarisation curve, or a change in total fluorescence; inactive = total fluorescence flat and polarisation flat or rising; no compound was filed as active; the % refers to the polarisation; negative = inhibition;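 also: % of control where 0% means no effect; inhibitors lower the polarisation; unlabelled MLL peptide was the positive control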
gsp ag = activates gsp, the McCune-Albright syndrome mutation | AID 624287 | gsp mutant cells, cAMP HTRF, 30 min; control for the full effect not named in the record | 340,000 compounds, 0.13% hits | Potency, µM (top dose mostly 76.9 µM), for inactives: at the highest dose activation (cAMP increase), usual class: activators; active = well fitted activation curve with a large enough effect; inconclusive = small, poorly fitted or top-dose-only effect, or another doubt; inactive = no such curve, though single readings can be large or run the other way; cell line not stated here;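 also: phosphodiesterase inhibitor Ro 20-1724 added with compounds to block cAMP breakdown; potency is read from the fitted curve at half-maximal effect; nearly all actives have a fitted effect of over 60% in size; about a fifth of the inactives were tested at one dose only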
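Cells stably selected in G418 were plated at 2000/well, grown 16-24 hr, then given compounds in DMSO with the PDE inhibitor […] (300 uM solution added) for 30 min at 37C; cAMP was read by HTRF.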
PINK1 modulator = modulators of PINK1 expression. PINK1 immunofluorescence, high-content cytometry, 24 h. Potency, µM (series often up to 76.6 µM), for the others: top-dose activation (PINK1 increase), most hits filed as activators. 410,000 compounds, 0.2% hits; active = well fitted activation curve with a large enough effect; inconclusive = small, poorly fitted or top-dose-only effect; inactive = flat fitted curve, though single readings scatter; cell line not stated here;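 also: potency is read from the fitted curve at half-maximal effect; % of control where 0% means no effect; nearly all actives have a fitted effect of over 65% in size; a mitochondrial uncoupler was the plate control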
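PINK1 protein level read as immunofluorescence by microplate cytometer in a fixed, stained stable cell line after 24 h exposure to five compound concentrations, with CCCP as control.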
Sfp PPTase inh = inhibitors of Bacillus subtilis Sfp phosphopantetheinyl transferase; 310,000 compounds, 3.5% hits; Potency, µM, for the others: max response, negative = inhibition, hits mostly inhibitors; Biochemical Sfp PPTase activity, qHTS; Q9F4F7; active = well fitted inhibition curve with a large enough effect; inconclusive = small, poorly fitted or top-dose-only effect, or another doubt; inactive = no such curve, though single readings can be large or run the other way;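 also: the enzyme is Sfp with the accession as filed and its product quenches rhodamine fluorescence; potency is read from the fitted curve at half-maximal effect; 0% = enzyme reaction without inhibitor and -100% = no enzyme wells; top concentration of the series not given in the record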
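Fluorescence-quenching assay: 15 nM Sfp-PPTase preincubated 15 min at room temperature with compound, then 5 uM rhodamine-CoA and 12.5 uM BHQ-2-labelled YbbR peptide added. Fluorescence (ex 525/em 598 nm) read at start and after 30 min; difference gives rate.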
ClpP mod = qHTS Assay for Activators of ClpP | ATP-dependent Clp protease proteolytic subunit (Bacillus subtilis (strain 168)), P80244 | purified B. subtilis ClpP, FRET peptide cleavage, 20 min | 340,000 compounds, 1.9% hits | Potency, µM (series often up to 57.5 µM), inactives show top-dose activity change, negative = active; active = well fitted falling curve with a large enough effect; inconclusive = small, poorly fitted or top-dose-only effect; inactive = no such curve, though single readings can be large or run the other way; also: potency is read from the fitted curve at half-maximal effect; the source files actives as falling curves though it sought activators and does not explain the sign; nearly all actives have a fitted effect of over 65% in size; many hits overshoot -100%
Target sequence (P80244 whole entry, looked up): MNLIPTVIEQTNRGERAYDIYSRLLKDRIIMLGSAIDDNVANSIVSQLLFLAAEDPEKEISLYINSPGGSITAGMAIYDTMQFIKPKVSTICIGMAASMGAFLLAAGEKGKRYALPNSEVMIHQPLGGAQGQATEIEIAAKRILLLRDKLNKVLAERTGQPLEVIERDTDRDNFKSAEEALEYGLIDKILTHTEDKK
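FRET quenching reversal measured ClpP activation: 10 microg/mL B. subtilis ClpP at pH 8 with the FRET-FV decapeptide, read at 430 nm after 320 nm excitation. The 20-min minus 0-min signal was scaled between DMSO/no-enzyme wells and ADEP (5.8 microM final).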
* hit, by the source's call; ? = inconclusive; · = no result given; [ ] = dose if it differs, or a comment.

SMILES	gsp antagonist	D2 agonist	Menin MLL FP FL	gsp ag	PINK1 modulator	Sfp PPTase inh	ClpP mod
C=CCN(C#N)c1nc(OC)nc(N2CCCC2)n1	13.9%	-0.3	2.6	22.0%	-0.4%	26.3%	0.2%
CCn1cc([N+](=O)[O-])c(C(=O)NCc2ccc(Cl)cc2)n1	-5.9%	-3.2	-0.7	2.6%	1.2%	18.8%	-4.4%
CCn1nnc2cc(C(=O)O)ccc21	11.5%	3.1	1.2	-8.4%[15.4 µM]	-2.1%	11.4%	·
CCn1c(SCC(=O)N2CCCCC2)nc(O)cc1=O	-32.3%	-6.0	-0.1	5.5%	1.0%	17.8%	-1.1%
Cc1occc1C(=O)NN=C1C2CC3CC(C2)CC1C3	1.7%	-0.8	2.5	-50.8%[inhibitor]	3.0%[38.3 µM]	8.7%	-3.2%
NS(=O)(=O)c1ccc(CCNS(=O)(=O)c2ccc(Cl)cc2)cc1	9.5%	0.6	4.2	26.5%	-0.5%	5.2%	-2.1%
CCN(CCNC(=O)CC1Oc2ccccc2NC1=O)c1ccccc1 (configuration not stated)	-0.9%	3.0	3.6	-21.6%	1.5%	3.7%	0.9%
C=CCN1C(c2ccccc2)=CS/C1=C(/C#N)c1nnc(N2CCOCC2)n1-c1ccccc1	-25.3%	1.1	6.2	3.0%	0.4%	-16.8%	1.4%
CC(=O)c1cccc(NC(=O)C2CC(=O)N(Cc3ccccc3)C2)c1 (configuration not stated)	-9.1%	-2.7	1.0	-1.5%	-1.9%	24.2%	-1.5%
COc1ncc2nc(C)c(=O)n(Cc3ccc(F)cc3)c2n1	·	·	7.0	·	0.6%	19.8%	·

Full records, quoted from the list. Order of values: gsp antagonist, D2 agonist, Menin MLL FP FL, gsp ag, PINK1 modulator, Sfp PPTase inh, ClpP mod
CCN(CCNC(=O)CC1Oc2ccccc2NC1=O)c1ccccc1 (configuration not stated) in the list: -0.9%, 3.0, 3.6, -21.6%, 1.5%, 3.7%, 0.9%
C=CCN1C(c2ccccc2)=CS/C1=C(/C#N)c1nnc(N2CCOCC2)n1-c1ccccc1 in the list: -25.3%, 1.1, 6.2, 3.0%, 0.4%, -16.8%, 1.4%

Next section:
SMILES	gsp antagonist	D2 agonist	Menin MLL FP FL	gsp ag	PINK1 modulator	Sfp PPTase inh	ClpP mod
COC(=O)c1cc(NC(=O)CN2C(=O)C(=O)N(C3CCCC3)C2=O)cc(C(=O)OC)c1	-1.4%	0.3	·	-3.9%	0.1%	·	-5.7%
O=C(c1cccc(Br)c1)N1CCN(S(=O)(=O)N2CCOCC2)CC1	4.4%	-1.0	-4.8	-11.2%	-1.1%	0.4%	·
COc1cccc(-c2c(C#N)c(SC)nc3cc(C)nn23)c1	17.9%	-3.4	4.2	-6.4%[15.4 µM]	6.1%	10.7%	-0.6%
Cc1ccc(C)c(N2CCN(C(=O)C3CCN(c4nc(C)cc(C)n4)CC3)CC2)c1	35.5µM*	-3.9	5.2	-36.3%[inhibitor]	4.8%[38.3 µM]	-18.4%	-18.9%
O=C(Nc1ccon1)Nc1ccc(F)cc1F	7.2%	-2.3	3.8	0.2%	-0.3%	11.7%	-1.3%
COc1ccc(/C=C2\SC(=S)N(CCC(=O)Nc3ccccc3C(=O)O)C2=O)cc1	-12.2%	-5.2	-4.4	15.8%	0.6%	2.4%	·
Cc1cc(C)n(-c2cc(Oc3ccccc3)ncn2)n1	-21.9%	-3.1	2.2	-0.7%	-3.4%	-11.8%	1.2%
O=C(Nc1cccc(Cl)c1)c1nc[nH]c1C(=O)NCCCCNC(=O)c1[nH]cnc1C(=O)Nc1cccc(Cl)c1	10.4%	-3.5	·	-19.5%	-0.3%	·	0.0%
CCCCCCCCNCCS(=O)(=O)NN1CCOCC1	-8.4%	0.8	·	·	-1.2%	·	-1.8%
CCOCCCn1c(=S)[nH]c2cc(C(=O)N3CCN(C4CCCCC4)CC3)ccc2c1=O	-15.3%	-3.4	-6.0	?	1.2%	5.5%	0.1%

Arranged by formula weight (low to high): 3 of the compounds above.
SMILES	gsp antagonist	D2 agonist	Menin MLL FP FL	gsp ag	PINK1 modulator	Sfp PPTase inh	ClpP mod
Cc1cc(C)n(-c2cc(Oc3ccccc3)ncn2)n1	-21.9%	-3.1	2.2	-0.7%	-3.4%	-11.8%	1.2%
CCCCCCCCNCCS(=O)(=O)NN1CCOCC1	-8.4%	0.8	·	·	-1.2%	·	-1.8%
O=C(c1cccc(Br)c1)N1CCN(S(=O)(=O)N2CCOCC2)CC1	4.4%	-1.0	-4.8	-11.2%	-1.1%	0.4%	·

The results go on:
SMILES	gsp antagonist	D2 agonist	Menin MLL FP FL	gsp ag	PINK1 modulator	Sfp PPTase inh	ClpP mod
Clc1ccc2c(NNc3ccccc3Cl)ccnc2c1	12.0%	-5.9	-2.5	-3.2%	1.6%	-1.8%	-1.1%
CCOC(=O)c1ccc(CC2S/C(=C(\C#N)C(C)=O)NC2=O)cc1 (configuration not stated)	-23.6%	-3.2	10.2	11.6%	0.4%	-6.4%	-0.8%
O=C(Nc1cccc(-c2nc3ccccc3[nH]2)c1)c1ccco1	-6.9%	-0.3	1.0	?	-2.2%	-1.6%	-1.2%
COc1ccc(CNC(=O)C/C(C)=N/NC(=O)c2ccc(OC)cc2OC)cc1	·	4.0	-3.2	-16.7%[15.4 µM]	0.5%	6.1%	·
O=[N+]([O-])c1cc(S(=O)(=O)N2CCCC2)ccc1N/N=C/c1ccccn1	-5.4%	-2.4	·	-19.0%	6.2%	3.8%	1.4%
CCOC(=O)N1CCN(CC(O)COc2ccccc2C(C)C)CC1 (configuration not stated)	3.3%	2.6	-2.3	6.7%	1.2%	-10.0%	-1.0%
CCCC12CN3CC(C)(CN(C1)C31C(=O)Nc3ccc(C)cc31)C2=O (configuration not stated)	5.3%	0.1	1.8	-2.9%	·	12.8%	-1.2%
COc1ccccc1C(=O)NCC(=O)Nc1ccccc1	26.5%	-5.2	2.8	?	-2.3%	12.2%	0.9%
CCC(=O)N(Cc1cc2ccc(C)cc2[nH]c1=O)c1ccccc1OC	-14.5%	-1.8	-5.2	-28.8%	-1.3%	-5.6%	-23.7%
CCOc1ccccc1CNC(=O)CCCC(=O)n1nc(C)c2ccccc21	-1.4%	-11.7	3.8	6.4%	2.2%	3.6%	0.3%
COc1cccc(C(=O)CC(=O)C(=O)Nc2cc(OC)ccc2OC)c1	-12.1%	-0.4	1.0	-8.7%	0.6%	7.1%	·
CCN(CC)c1ccc(C(=O)OCC(=O)Nc2ccc3[nH]c(=O)[nH]c3c2)cc1	-10.7%	4.6	-1.8	-6.7%	0.0%	10.3%	·
COc1ccc(-c2cc(C(=O)N(C)CC(=O)Nc3cccc(F)c3)c3ccccc3n2)cc1OC	·	?	·	-29.4%	-1.3%	·	3.8%
CN(c1ccc(C(=O)Nc2ccccc2C(=O)N2CCCC2)cc1)S(C)(=O)=O	9.2%	-0.8	4.3	-2.7%	-0.6%	-4.2%	0.6%
CCCSc1nc2c(cnn2-c2ccc(C)c(C)c2)c(=O)[nH]1	10.2%	1.2	0.6	5.1%	2.8%	1.3%	-4.1%
O=C(NC(=O)c1ccccc1)Nc1cccc(S(=O)(=O)N2CCCCC2)c1	6.1%	-1.1	2.2	-41.7%[inhibitor]	15.6%	14.8%	-0.9%
O=C1C(=O)N(Cc2ccccc2)C(=O)N1CCN1C(=O)c2ccccc2C1=O	8.5%	-4.4	-0.1	-28.0%	1.9%	5.5%	-0.6%
Cc1cccc(OC(C)C(=O)Nc2nc(-c3ccncc3)cs2)c1 (configuration not stated)	-14.6%	4.3	·	-6.2%[15.4 µM]	17.7%	·	·
c1ccc(-n2nnnc2SCCCSc2nc3ccccc3s2)cc1	-3.1%	-1.6	-1.4	-25.4%	·	-8.7%	-21.2%
COc1ccc(/C=N/NC(=S)Nc2ccccc2)cc1	6.6%	-3.7	3.6	9.4%[15.4 µM]	1.9%	-12.1%	-2.1%

Part of the list above, with bars between the fields:
structure | gsp antagonist | D2 agonist | Menin MLL FP FL | gsp ag | PINK1 modulator | Sfp PPTase inh | ClpP mod
O=C1C(=O)N(Cc2ccccc2)C(=O)N1CCN1C(=O)c2ccccc2C1=O | 8.5% | -4.4 | -0.1 | -28.0% | 1.9% | 5.5% | -0.6%
CN(c1ccc(C(=O)Nc2ccccc2C(=O)N2CCCC2)cc1)S(C)(=O)=O | 9.2% | -0.8 | 4.3 | -2.7% | -0.6% | -4.2% | 0.6%

(list continues)
SMILES	gsp antagonist	D2 agonist	Menin MLL FP FL	gsp ag	PINK1 modulator	Sfp PPTase inh	ClpP mod
O=C(NCc1ccccc1)C1CCC(=O)N(CC2CCCCC2)C1 (configuration not stated)	11.3%	-3.0	·	-2.8%	0.4%	10.9%	-0.5%
CCN(CC)c1ccc(N=Cc2c(C)[nH]c3ccccc23)cc1	?	-1.2	19.6	7.9%	6.6%	50.1µM*	3.4%
CC1(C)Cc2c(C#N)c(SCCOc3ccccc3)nc(N3CCOCC3)c2CO1	?	0.8	6.3	?	3.3%	-8.3%	?
Cc1cccc(C)c1NC(=O)COc1cccc(/C=N/NC(=O)C(=O)NCc2ccccc2)c1	-1.3%	-1.6	2.3	-1.1%	3.8%	2.4%	-0.6%
COc1ccc(OC)c(NC(=O)CCCC(=O)NC2CCCCC2)c1	-1.5%	-7.3	4.3	-34.8%[inhibitor]	-0.7%	6.0%	-1.7%
CCOC(=S)SCC(=O)Nc1nc(C)c(C)s1	-6.6%	-8.9	-8.0	2.1%	3.2%	56.2µM*	-1.1%
COc1cc(CC(NC(C)=O)C(=O)NC2CCN(C(=O)Nc3ccccc3C)CC2)cc(OC)c1 (configuration not stated)	9.2%	-3.5	·	10.6%[15.4 µM]	0.8%	14.0%	·
CC(=O)c1cnc2nc(SCc3cccc(C)c3)nn2c1C	-13.2%	2.1	0.9	-44.7%[inhibitor]	-0.9%	-7.4%	2.1%
COc1ccc(S(=O)(=O)N2CCOCC2)cc1NC(=O)Cc1c(Cl)cccc1Cl	26.5%	-1.4	2.5	?	16.1%	9.5%	1.1%

This is a random part of the collection (roughly 5.1% active in at least one column).
